Screening results as filed in PubChem BioAssay.
CapD inh – inhibitors of Bacillus anthracis CapD enzyme; purified CapD enzyme, fluorescence intensity read-out; stronger effect = lower value; some hits fall short of the stated cut; z-score (concentration not given with the values); actives 0.23% (n = 140,000);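 active means z-score under -4 in either of two replicates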;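 further: stock transfer was 100 nL into about 40 µL; score is relative to mean and spread of the plate; one replicate is shown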
AID504770 – growth inhibitors of E. coli YBA685 in a screen for V. cholerae RctB (chromosome II replication) inhibitors; E. coli YBA685 rctB-dependent plasmid, OD600 growth, 3 h; stronger effect = lower value; z-score (concentration not given with the values); actives 0.27% (n = 130,000); AID 504770;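 active means z-score under -2 on both plates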;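 further: wells of about 30 µL received 100 nL stock; score is relative to mean and SD of the test wells; the first replicate is given; strong numbers were not always called active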
An asterisk follows results filed as active; . = not tested or not shown; & = joins results of further samples.

Below each compound – CapD inh, AID504770
1: O=C(CC(=O)N1CCCC1)N1CCCC1
→ 0.47, .
2: Cc1cc(C)cc(N(C(C)C(N)=O)S(C)(=O)=O)c1 (stereo not drawn)
→ 0.03, -0.35
3: O=C(NCc1csc(-c2cccs2)n1)C1CC1
→ 23.1, 0.3
4: COC(CNC1=CC(=O)OC12CCCCC2)OC
→ 0.165, -0.3
5: Cc1ccccc1NS(=O)(=O)c1ccc2c(c1)n(C)c(=O)n2C
→ -0.245, -1.1
6: CC(O)c1cccc(NC(=O)C2C3C=CC(C3)C2C(=O)O)c1 (stereo not drawn)
→ 0.1, 0.2
7: CCC(CC)C(=O)N1c2cc(C)c(C)cc2-c2c(ssc2=S)C1(C)C
→ -0.515, .
8: CN(C)c1ccc(CO)c(F)c1C#N
→ 31.6, 0.2
9: CC(=O)c1ccc(N2C(=O)C3C(C2=O)C2(C)c4ccccc4C3(C)c3ccccc32)cc1 (stereo not drawn)
→ -0.415, .
10: COC(=O)c1ccc2c(=O)n(Cc3ccco3)c(SCC(=O)N3CCN(c4ccccc4OC)CC3)nc2c1
→ -0.925, .
11: Nc1ccccc1-c1nc2ccccc2s1
→ ., 0
12: CC(=O)N1N=C(c2c(-c3ccccc3)c3cc(Cl)ccc3[nH]c2=O)CC1c1ccccc1Cl (stereo not drawn)
→ -0.64, .
13: O=C(NCCCc1ccco1)c1ccc(Cn2c(SCc3ccccc3)nc3cccnc32)cc1
→ 95.2, 0.55
14: CC1(C)C(c2ccccc2)=NC(c2ccccc2)=[N+]1[O-]
→ -0.755, -0.4
15: O=C(Nc1ccc2c(c1)C(=O)NC2=O)c1ccco1
→ 25.4, 0.35
16: O=C(NCc1ccccc1)c1ccccc1
→ 0.255, -0.5
17: N#Cc1ccc(Sc2ccc(C#N)c(C#N)c2)cc1C#N
→ 0.695, -0.85
18: Cc1n[nH]c(C)c1CN
→ ., -1.45
19: O=C(NCC1CCCO1)c1ccc2c(=O)n(Cc3ccco3)c(SCc3ccc(F)cc3Cl)nc2c1 (stereo not drawn)
→ -0.735, .
20: O=C(N=C1SCCN1CC(O)c1ccccc1)c1ccccc1 (stereo not drawn)
→ ., -0.3
21: O=C(CCc1c[nH]c2ccccc12)NCc1cccc(OC(F)(F)F)c1
→ 0.025, .
22: O=[N+]([O-])c1ccc2oc(SCc3nc4ccccn4c3Br)nc2c1
→ -0.865, .
23: O=C(CCc1c[nH]c2ccccc12)NNC(=O)COc1ccc([N+](=O)[O-])cc1
→ -1.16, .
24: Cc1ccc(S(=O)(=O)Nc2cncc(C(=O)N3CCc4ccccc43)c2)cc1
→ ., -0.75
25: NC1=NC(=O)CC(C(=O)Nc2ccccc2)S1 (stereo not drawn)
→ ., -0.05
26: COC(=O)c1cc2c(cc1N)OCCO2
→ ., -0.25
27: O=C(C1=C2SC=C(c3ccc(Br)cc3)N2CC1)c1cncc(Br)c1
→ ., 0.2
28: Cc1cc(C)n(-c2nc3cc(Cl)ccc3nc2NCc2ccc(F)cc2)n1
→ 0.6, -0.95
29: CCCCn1c(CCC(=O)OCc2csc(-c3ccccc3)n2)nc2cc(S(=O)(=O)N3CCOCC3)ccc21
→ ., -0.65
30: COc1ccc(CNCC(=O)O)cc1
→ 0.455, 1.9
31: CCOc1ccccc1N1C(=O)C2C(c3ccc(Cl)cc3)OC3(C(=O)c4ccccc4C3=O)C2C1=O (stereo not drawn)
→ -0.87, .
32: Fc1cccc2sc(NCc3ccccc3)nc12
→ -1.09, 2.1
33: O=C(Nc1cccc(N2CCCC2=O)c1)C1CCN(C(=O)/C=C/c2ccccc2)CC1
→ ., -0.25
34: CC(=O)NNc1ncnc2c1cnn2-c1ccc(F)cc1
→ 0.485, -0.35
35: CCOC(=O)C(C)Sc1nc(-c2cccs2)ccc1C#N (stereo not drawn)
→ 47.3, 1.35
36: CN(CCCNS(=O)(=O)c1ccc(Cl)cc1)c1ccccc1
→ -0.375, .
37: O=C(c1ccccc1)N1CCN(c2cccc(Cl)c2)CC1
→ ., 1.95
38: CCOC(=O)CSC1=C(C#N)C(c2ccccc2OCC)C(C(=O)OCC)C(=O)N1 (stereo not drawn)
→ -0.345, .
39: COc1cc(/C=c2\sc3nc4c(C)c(C)ccc4n3c2=O)ccc1OC(C)C(=O)O (stereo not drawn)
→ -0.675, .
40: O=C(NC1CCCCC1)c1cc(-c2ccccc2)nc2ccccc12
→ 1.35, 0.05

4 entries drawn at random from those above:
Below each compound – CapD inh, AID504770
11: Nc1ccccc1-c1nc2ccccc2s1
→ ., 0
10: COC(=O)c1ccc2c(=O)n(Cc3ccco3)c(SCC(=O)N3CCN(c4ccccc4OC)CC3)nc2c1
→ -0.925, .
15: O=C(Nc1ccc2c(c1)C(=O)NC2=O)c1ccco1
→ 25.4, 0.35
22: O=[N+]([O-])c1ccc2oc(SCc3nc4ccccn4c3Br)nc2c1
→ -0.865, .

Next structures.
Below each compound – CapD inh, AID504770
41: CN1CCN(NC(=O)Cc2ccccc2Cl)CC1
→ 0.395, -0.4
42: CC1(C)CC(OC(=O)c2ccccc2)CC(C)(C)N1
→ 0.71, -0.7
43: Cc1cc(C)c(NC(=O)C2C3C=CC(C3)C2C(=O)O)c(C)c1 (stereo not drawn)
→ 0.07, .
44: Cc1cc(C)c2c(n1)SCC(=O)N2CC(=O)N1CCN(C)CC1
→ -0.525, -0.75
45: N#Cc1cc(-n2c3ccccc3c3nc4ccccc4nc32)c([N+](=O)[O-])cc1C#N
→ -0.19, .
46: N#Cc1cc(Cc2ccc(N)c(C#N)c2)ccc1N
→ 47.3, -0.05
47: Cc1nc(C(F)(F)F)[nH]c(=O)c1C
→ -0.1, -0.45
48: Cc1ccc(S(=O)(=O)NCc2csc(-c3ccccc3)n2)c(C)c1
→ 63.1, 0.55
49: COCCCN1C(=O)/C(=C/c2c(N3CCN(CCO)CC3)nc3ccccn3c2=O)SC1=S
→ -0.985, .
50: COc1ccc(-c2noc(CNC(=O)c3ccc(C)cc3C)n2)cc1OC
→ ., -0.3
51: O=C(Nc1ccccc1C(=O)O)c1cccc(Cl)c1
→ -0.295, -0.45
52: CC(=O)N1c2ccccc2C(N(C(=O)c2ccc([N+](=O)[O-])cc2)c2ccccc2)CC1C (stereo not drawn)
→ -0.18, .
53: O=C(O)c1ccc(-n2cnc3ccccc3c2=O)cc1
→ 0.02, -1.25
54: COc1ccc(NC(=O)c2c[nH]c(=O)[nH]c2=O)cc1
→ ., -0.85
55: Cc1onc(-c2ccccc2Cl)c1C(=O)N1C=Cc2ccccc2C1C#N (stereo not drawn)
→ 0.205, -0.55
56: N#CSc1ccc(NCCO)cc1C(F)(F)F
→ ., -0.2
57: CN(C)C(=O)O/N=C(\N)c1ccc(C2SCCS2)cc1
→ 0.16, .
58: O=c1oc2c3c(ccc2c2c1CCC2)OCN(c1ccccc1)C3
→ 65.6, 0.05
59: CCOC(=O)c1cc2occc2n1CCc1ccccc1
→ ., -0.1
60: C=CCN1C(=O)/C(=C\c2ccccc2)SC1=S
→ 0.17, -1.1

Full records as entered above. Order of values: CapD inh | AID504770
O=C(c1ccccc1)N1CCN(c2cccc(Cl)c2)CC1 across the screens: . | 1.95
C=CCN1C(=O)/C(=C\c2ccccc2)SC1=S across the screens: 0.17 | -1.1
CN(C)c1ccc(CO)c(F)c1C#N across the screens: 31.6 | 0.2

Further structures
Below each compound – CapD inh, AID504770
61: CCOC(=O)N1CCN(C(=O)CN(c2cc(C(F)(F)F)ccc2Cl)S(=O)(=O)c2ccccc2)CC1
→ 0.05, .
62: S=c1[nH]nc(COc2ccccc2Cl)o1
→ -0.16, -0.7
63: O=C1CN(c2ccccc2F)C(=O)CN1/N=C/c1cccs1
→ -0.79, 2.4
64: CCSc1ccccc1C(=O)NCCCn1ccnc1
→ ., 0.6
65: Cc1ccccc1Nc1ncccc1C(=O)N1CCOCC1
→ ., -0.85
66: Cn1c(C2CCCO2)nc2ccccc21 (stereo not drawn)
→ 0.815, -0.1
67: S=C1NC2=C(CCc3ccccc32)C(c2cccnc2)N1 (stereo not drawn)
→ 0.675, -0.25
68: O=C(N/N=C/c1ccc(F)cc1Cl)c1ccc([N+](=O)[O-])o1
→ -0.27, .
69: CCN1C(=O)/C(=C2\SC(=S)N(N)C2=O)c2ccccc21
→ -0.575, -1.05
70: CCCC(=O)Nc1ccc2nc(-c3ccccc3)[nH]c2c1
→ ., 2.35
71: Cc1cc(=O)n(CCOc2ccccc2)c2c1c(C)nn2-c1ccccc1
→ -1.32, 0.3
72: O=C(O)C1CC(=O)N(CCCN2CCOCC2)C1 (stereo not drawn)
→ ., -0.7
73: CS(=O)(=O)c1ccc2nc(NC(=O)c3ccc(S(=O)(=O)N4CCOCC4)cc3)sc2c1
→ 0.045, .
74: CN(Cc1ccccc1)S(=O)(=O)c1ccc2c(c1)n(C)c(=O)n2C
→ 0.395, -0.6
75: CC1CCc2oc3ccc(NS(=O)(=O)c4ccc(C(C)C)cc4)cc3c2C1 (stereo not drawn)
→ -0.25, .
76: CN(CC1COc2ccccc2O1)c1nnnn1-c1ccccc1 (stereo not drawn)
→ ., -0.05
77: O=C(NCCCN1CCCC1=O)C1CCC(CNS(=O)(=O)c2ccccc2)CC1 (stereo not drawn)
→ 0.185, -0.3
78: c1ccc(CN2CCN(Cc3c[nH]c4ccccc34)CC2)cc1
→ -0.175, 1.4
79: CCOC(=O)c1nn(-c2ccccc2)c(=O)c2c(NC(=O)C(C)C)scc12
→ -0.375, 0.1
80: Cc1ccc(Cn2nnc3c(=O)[nH]c(C(=O)NC(C)(C)C)nc32)cc1
→ ., -0.15
81: COc1ccc(Cl)cc1S(=O)(=O)NCc1cccnc1
→ -0.265, 2
82: Nn1c(SCC(=O)NC(=O)NC2CCCC2)nnc1SCC(=O)NC(=O)NC1CCCC1
→ ., -0.05
83: NC(=S)Sc1nncn1C(=O)c1ccc(=O)[nH]n1
→ ., -0.25
84: COc1ccc(-c2cc3nc4n(c(=O)c3s2)CCOC4)cc1
→ -0.29, .
85: O=c1[nH]c(CSc2cccc[n+]2[O-])nc2ccccc12
→ 0.475, 0.35
86: O=c1c(-c2ccc3c(c2)OCCO3)coc2cc(OC3OC(CO)C(O)C(O)C3O)ccc12 (stereo not drawn)
→ -0.69, .
87: CC(=O)OC1N=C(c2ccccc2)c2cc(Br)ccc2N(C)C1=O (stereo not drawn)
→ -0.755, .
88: O=C(c1ccccc1C(F)(F)F)N1CCCc2ccccc21
→ ., -0.55
89: Oc1ccccc1/C=N/C1=NNC(c2ccccc2)=CS1
→ -0.02, 2.35
90: CC(=O)c1c(C)nn(-c2ccccc2)c1-c1ccccc1[N+](=O)[O-]
→ -0.27, .

2 of these compounds in a different format:
(88) O=C(c1ccccc1C(F)(F)F)N1CCCc2ccccc21
(89) Oc1ccccc1/C=N/C1=NNC(c2ccccc2)=CS1

screen / no.	88	89
CapD inh	.	-0.02
AID504770	-0.55	2.35

Further entries.
Below each compound – CapD inh, AID504770
91: O=C(COC(=O)c1cncc(Br)c1)NCc1ccc(F)cc1
→ ., 0.4
92: COc1ccc(/C(O)=C2\C(=O)C(=O)N(CCN3CCNCC3)C2c2ccccc2)cc1 (stereo not drawn)
→ -1.08, 0.75
93: O=c1[nH]ncc2c1[nH]c1ccccc12
→ 5.36, -0.95
94: COc1cc(Cl)c(Cl)cc1Cl
→ 0.455, .
95: CCOc1ccc(NC(=O)c2c(N)sc3c2CCC3)cc1
→ -0.41, -0.35
96: CN/N=C/c1ccc(C#N)cc1
→ ., 0.2
97: NC(=O)c1sc2nc(C3CC3)cc(-c3cccs3)c2c1N
→ 3.56, -0.2
98: O=S1(=O)c2cccc3cccc(c23)N1CC1CN(Cc2ccccc2)CCO1 (stereo not drawn)
→ ., 1.05
99: CCOC(=O)c1c[nH]c2c(ccc3ccccc32)c1=O
→ 1.31&3.06, -0.45&-0.1
100: CC(NS(=O)(=O)c1ccc(N)cc1)C1CC2CCC1C2 (stereo not drawn)
→ ., 0.1
101: CCN(c1ccccc1)S(=O)(=O)c1ccc(N)cc1
→ 0.155, -0.25
102: O=C(NCc1ccccc1Cl)c1cc(S(=O)(=O)N2CCOCC2)ccc1Sc1ccc(Br)cc1
→ 0.23, .
103: CCC(C)C(=O)O[C@H]1[C@H](O)C2C(CN3CC(C)CCC3[C@@]2(C)O)C2C[C@]34O[C@]5(O)C(OC(=O)C(C)(O)C(C)O)CC[C@@]3(C)C5C(OC(C)=O)[C@@H](OC(C)=O)C4[C@@]21O (stereo partly drawn)
→ 0.005, 0.65
104: Cc1cccc(NC(=O)c2ccc(N3CC4CC(C3)c3cccc(=O)n3C4)c(NC(=O)c3ccccc3Br)c2)n1 (stereo not drawn)
→ 1, .
105: CCC(=O)Nc1ccc(Cl)cn1
→ ., -0.7
106: O=S(=O)(Nc1ccc(O)c2ccccc12)c1ccccc1
→ -0.64, -0.25
107: COc1ccc(-n2ncc3c(Nc4cc(OC)c(OC)c(OC)c4)ncnc32)cc1
→ -0.46, .
108: C=CCn1c(C2CC(=O)N(c3cccc(C)c3)C2)nc2ccccc21 (stereo not drawn)
→ ., 1.6
109: NC1=NC(c2ccccc2)CC(=O)N1 (stereo not drawn)
→ 0.08, 0.55
110: Cn1cc(S(=O)(=O)CC(=O)N2CCCCCC2)c2ccccc21
→ 0.03, -0.3
111: Cc1ccc(-c2csc3ncnc(SCCC(=O)O)c23)cc1
→ -0.715, 1.95
112: CN(C)/C=C1\COc2ccc(Cl)cc2C1=O
→ 0.17, -0.9
113: CSc1ccccc1NC(=O)C1CC1C (stereo not drawn)
→ ., 0.05
114: Cc1csc(C(C#N)C(=O)CSc2nnc(Nc3cccc(F)c3)s2)n1 (stereo not drawn)
→ ., -0.05
115: CC1CCCC/C1=N\NC(N)=O (stereo not drawn)
→ ., -1.4
116: COc1ccc(OCC(=O)NCC(=O)O)cc1
→ 0.42, -0.65
117: COC(=O)CN1CC(=O)NC(=O)C1
→ ., -0.4
